Source: PubChem (Southern Research Institute)
Mtb H37Rv – Mycobacterium tuberculosis H37Rv growth inhibition, putative kinase inhibitor library, confirmatory dose response (AID 2842); M. tuberculosis H37Rv growth inhibition; higher % means a stronger effect; some inactives read as strong as hits; inhibition, % at 10 µg/mL, or IC90 in µg/mL where a hit was titrated; 24,000 tested, 5.2% active;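 active = confirmed in a dose series; about a fifth of its hits are not listed in these tables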;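 note: bacteria incubated one week before Alamar blue readout; 0% = bacteria only wells and 100% = bacteria with high antibiotic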
The depositor's hits bear a star. Some of the compounds tested; the hit share may differ from the screen's.

| SMILES | Mtb H37Rv |
| --- | --- |
| CC(=O)Cn1c(=O)c2c(nc3n(-c4ccc(C)c(Cl)c4)c(C)c(C)n23)n(C)c1=O | -2.0% |
| CCOc1ccc(NC(=O)c2oc3ccccc3c2NC(=O)c2ccc(C)c(C)c2)cc1 | -4.5% |
| Cc1cccc(-c2nnc(NC(=O)c3c(F)cccc3Cl)s2)c1 | 8.9% |
| O=C(CSc1nc2c(c(=O)n1-c1ccc(Br)cc1)SCC2)Nc1ccccc1F | 9.7% |
| COc1ccc(C=Nc2ccccc2-c2nc3ccccc3[nH]c2=O)cc1 | -7.1% |
| Cc1ccc(-n2c(C)cn3c4c(=O)n(Cc5ccc(F)cc5)c(=O)n(C)c4nc23)cc1 | -0.5% |
| O=C(CC1CCCCC1)Nc1c(C(=O)Nc2ccc3c(c2)OCO3)oc2ccccc12 | -4.2% |
| O=C1NC(=O)c2cc(S(=O)(=O)N(CCO)CCO)cc3cccc1c23 | -13.7% |
| O=c1ccn2c(SCc3cccc4ccccc34)nnc2[nH]1 | -9.6% |
| CCOC(=O)c1nn(-c2ccc(Cl)cc2)c(=O)c2c(NC(=O)c3cc([N+](=O)[O-])ccc3Cl)scc12 | -1.1% |
| COc1ccc(C)cc1S(=O)(=O)Nc1cc2c3c(c1)C(C)C(=O)N3CCC2 (configuration not stated) | -1.6% |
| COc1ccc2cc(CCNC(=O)CCc3ccccc3)c(=O)[nH]c2c1 | 3.6% |
| O=C(COc1ccccc1)N=Nc1c(O)[nH]c2ccc(Br)cc12 | 79.5% |
| Cc1cc(C)nc(SCc2cc(=O)c(OC(=O)c3ccc4c(c3)OCO4)co2)n1 | -3.8% |
| Cc1ccc(NC(=O)c2cc3ccccc3oc2=O)cc1C | 48.0% |
| COc1cc(C(C)=O)ccc1OCC(O)Cn1ccnc1 (configuration not stated) | -12.9% |
| COc1ccc(NC(=O)Cn2cnc3sc(C)c(C)c3c2=O)cc1 | -4.5% |
| C=CCn1c(SCC(=O)O)nc2ccccc2c1=O | 6.8% |
| O=C(CN1N=NC2C(=O)N(c3ccc(Br)cc3)C(=O)C21)Nc1ccccc1Cl (configuration not stated) | -14.9% |
| Cc1ccc(C)c(NS(=O)(=O)c2c[nH]c(=O)[nH]c2=O)c1 | 21.7% |
| O=C(O)CCN1C(=O)C2C3CC(C2C1=O)C1C(c2cccnc2)c2sc(=O)[nH]c2SC31 (configuration not stated) | -9.8% |
| Cn1c(=O)c2c(nc(SCC(=O)c3ccccc3)n2CCCc2ccccc2)n(C)c1=O | -2.4% |
| COc1cccc(/C(O)=C2\C(=O)C(=O)N(CCCn3ccnc3)C2c2cccc(Br)c2)c1 (configuration not stated) | -8.1% |
| CCOC(=O)COc1cccc2c(=O)n(CC(=O)Nc3ccc(C)c(Cl)c3)ccc12 | -3.7% |
| O=C(CSc1nnc(-c2ccncc2)o1)Nc1ccc(F)cc1F | -17.4% |
| O=c1cc(CO)oc(C(Nc2ccccn2)c2ccc(Cl)cc2)c1O (configuration not stated) | -12.1% |
| COC(=O)c1ccc(CSc2ccc3nnc(-c4ccc(Cl)cc4)n3n2)o1 | -1.4% |
| COc1cccc(C(=O)Nc2cc3c4c(c2)CCC(=O)N4CCC3)c1OC | 2.4% |
| CC(=O)Nc1ccc(NC(=O)CC2CCS(=O)(=O)C2)cc1 (configuration not stated) | -4.0% |
| O=C(CCN1C(=O)/C(=C\c2ccco2)SC1=S)NC1CCCC1 | 3.0% |
| Cn1c(=O)[nH]c(=O)c2c1nc(SCc1ccccc1Cl)n2CC(N)=O | -7.0% |
| O=C(CSc1ccc2nnc(-c3cccc(F)c3)n2n1)NCC1CCCO1 (configuration not stated) | 11.3% |
| CC1CCN(S(=O)(=O)c2ccc(C(=O)Nc3nc(-c4cccc5ccccc45)cs3)cc2)CC1 | 3.6% |
| O=C(CSc1ccc2nnc(-c3ccccc3)n2n1)c1ccc(Cl)cc1 | -17.9% |
| COc1cc(/C=N/Nc2nncc(=O)[nH]2)cc(OC)c1O | 6.6% |
| O=C(Cc1ccc(Cl)cc1)Nc1c(C(=O)Nc2ccc3c(c2)OCCO3)oc2ccccc12 | -12.2% |
| CCOC(=O)c1oc2ccccc2c1NC(=O)/C=C\c1ccc2c(c1)OCO2 | 4.9% |
| COC(=O)c1ccc(NC(=O)CSc2ncnc3c2nnn3-c2ccc(OC)cc2)cc1 | -4.5% |
| O=c1[nH]c(SC2C=CCCC2)nc2sc3c(c12)CCCC3 (configuration not stated) | 7.0% |
| CCc1cc(-c2n[nH]c(C)c2-c2cc3ccccc3o2)c(O)cc1OC | 65.4% |
| N#Cc1cc2c(nc1SCC(=O)O)CCC2 | -15.8% |
| CC1(C)CC(=O)c2sc(NC(=O)c3cccc(Oc4ccccc4)c3)nc2C1 | 24.9% |
| O=C(Nc1c(C(=O)Nc2ccc([N+](=O)[O-])cc2)oc2ccccc12)c1ccc(Cl)cc1 | 12.2% |
| CCOC(=O)c1sc2nc(NC(=O)C3CCCCC3)sc2c1C | 8.0% |
| Cc1cc(C)cc(C(=O)Nc2c(C(=O)Nc3ccccc3)oc3ccccc23)c1 | 1.8% |

4 entries from above, set out differently.
structure: O=C(CSc1ccc2nnc(-c3cccc(F)c3)n2n1)NCC1CCCO1 (configuration not stated)
  Mtb H37Rv: 11.3%
structure: CC1CCN(S(=O)(=O)c2ccc(C(=O)Nc3nc(-c4cccc5ccccc45)cs3)cc2)CC1
  Mtb H37Rv: 3.6%
structure: O=C(CSc1ccc2nnc(-c3ccccc3)n2n1)c1ccc(Cl)cc1
  Mtb H37Rv: -17.9%
structure: COc1cc(/C=N/Nc2nncc(=O)[nH]2)cc(OC)c1O
  Mtb H37Rv: 6.6%

(listing goes on)
| SMILES | Mtb H37Rv |
| --- | --- |
| Cc1ccc(-n2c(N)cc(=O)nc2SCC(=O)Nc2nccs2)cc1 | -16.6% |
| O=c1[nH]nc(SCc2c(Cl)ccc(Cl)c2Cl)c(=O)[nH]1 | 37.1% |
| O=C(Nc1ccc(Cl)cc1Cl)c1cnc2sccn2c1=O | 5.7% |
| CCOC(=O)N1CCN(CC(O)COc2ccc([N+](=O)[O-])cc2)CC1 (configuration not stated) | 16.9% |
| N#Cc1c(NC(=O)/C=C/c2cccs2)sc2c1CCC2 | 2.9% |
| COc1cccc(NC(=O)Nc2nc3c(s2)CC(C)CC3)c1 (configuration not stated) | 0.4% |
| NC(=O)c1oc2ccccc2c1NC(=O)c1cccc(C(F)(F)F)c1 | -4.1% |
| O=C(Cc1ccc(F)cc1)Nc1c(C(=O)Nc2ccc3c(c2)OCCO3)oc2ccccc12 | 59.8% |
| CC1=C(C(=O)Nc2ccccc2)C(c2ccc(F)cc2)NC(=O)N1 (configuration not stated) | -8.5% |
| Cc1ccc(N2CC(NC(=O)c3ccccc3C)CC2=O)cc1 (configuration not stated) | 9.0% |
| CCCn1c(=NC(=O)c2c(F)cccc2F)sc2cc(S(C)(=O)=O)ccc21 | 4.9% |
| CCOC(=O)N1CCN(C(=O)CSc2ncnc3ccccc23)CC1 | 2.4% |
| CCOc1ccc2c(c1)c(=O)c(C(=O)c1ccccc1)cn2CC(=O)Nc1cccc(OC)c1 | 9.2% |
| COc1cccc2c(=O)cc(C)n(CC(=O)Nc3ccc(Br)cc3)c12 | -1.4% |
| NC(=O)CSc1nnc(NC(=O)NC2CCCCC2)s1 | -13.5% |

Overlap with the part before: 3 compounds, then new ones.
mol,Mtb H37Rv
CCOc1ccc2c(c1)c(=O)c(C(=O)c1ccccc1)cn2CC(=O)Nc1cccc(OC)c1,9.2%
COc1cccc2c(=O)cc(C)n(CC(=O)Nc3ccc(Br)cc3)c12,-1.4%
NC(=O)CSc1nnc(NC(=O)NC2CCCCC2)s1,-13.5%
CCOC(=O)C1=C(C)N=c2s/c(=C/c3ccc(C)o3)c(=O)n2C1c1cccs1 (configuration not stated),-0.6%
CCCCCSc1nc2c(c(=O)[nH]c(=O)n2C)n1C(C)C,17.0%
Cc1cc(C)cc(N/C=C(\C#N)c2nc(-c3ccc4c(c3)OCO4)cs2)c1,-5.2%
O=C(Nc1nnc(-c2ccc(Cl)s2)o1)c1cccs1,74.7%
CCN1C(=O)C2(C(C#N)=C(N)Oc3c2oc(CO)cc3=O)c2ccccc21 (configuration not stated),-2.4%
CC(C)(C)C(=O)Nc1nnc(-c2ccc(Cl)cc2)s1,13.5%
CCOC(=O)N1CCN(C(c2cccnc2)c2c(O)cc(C)n(CCOC)c2=O)CC1 (configuration not stated),0.8%
Cc1cccc2sc(NNC(=O)c3nc4ccccc4s3)nc12,3.36µg/mL*
CCSc1nnc(NC(=O)c2cc(Cl)ccc2Cl)s1,4.9%
Nc1nc(NCc2ccccc2)nc(NCc2ccccc2)c1[N+](=O)[O-],0.6%
CCOc1ccc(-n2c(SCC(=O)Nc3ccc(OC)cc3)nc3c([nH]c4ccccc43)c2=O)cc1,-0.1%
Cc1cc2c(=O)n(C)c(SCC(=O)Nc3cccc(O)c3)nc2s1,-2.4%
CC1C(=O)N2CCCc3cc(S(=O)(=O)NC4CC4)cc1c32 (configuration not stated),-6.0%
CC1CC(C)CN(S(=O)(=O)c2ccc(C(=O)Nc3nc(-c4ccc(C(C)(C)C)cc4)cs3)cc2)C1 (configuration not stated),-2.1%
CCOC(=O)N1CCN(c2cc(=O)n(-c3cccc(C)c3)c(=O)[nH]2)CC1,-6.1%
COc1cc2c(=O)c(S(=O)(=O)c3ccc(F)cc3)cn(Cc3cccc(C)c3)c2cc1OC,-1.0%
COc1ccc(-n2nnc(-c3nc(-c4ccc5c(c4)OCO5)no3)c2N)cc1Cl,4.2%
CCOC(=O)C1CCN(C(c2cccc(C)c2)c2sc3nc(C)nn3c2O)CC1 (configuration not stated),1.1%
Cc1cccc(NC(=O)CSc2ccc(-c3ccc(Cl)cc3)nn2)c1C,0.8%
CCN(C(=O)Cn1cnc2ccccc21)c1ccccc1,16.6%
CCOC(=O)c1[nH]c2ccccc2c1NC(=O)c1cc(Cl)ccc1OC,6.4%
COc1ccc(Cn2cc(C(=O)c3ccc(OC)cc3)c(=O)c3cc4c(cc32)OCCO4)cc1,64.4%
Cc1ccc(OCC(=O)Nc2ccc(S(=O)(=O)Nc3onc(C)c3C)cc2)cc1C,-15.4%
O=C(Nc1nnc(-c2ccccc2Cl)s1)c1ccc(S(=O)(=O)N2CCOCC2)cc1,1.3%
CCOc1ccc(-c2cc(=O)c3ccc(NC(C)=O)cc3o2)cc1,5.0%
CCOc1cc(-c2nnc(NC(=O)c3nc4ccccc4s3)o2)cc(OCC)c1OCC,-11.3%
COC(=O)C1=C(N)Oc2c(oc(CO)cc2=O)C1c1ccc2c(c1)OCO2 (configuration not stated),-1.7%
NC(=O)c1ccsc1NC(=O)c1cccc2ccccc12,43.1%
O=C(CCc1ccccc1)Nc1c2c(nn1-c1ccccc1)CS(=O)(=O)C2,-9.3%
CCN(CC)c1nc2c(c(=O)[nH]c(=O)n2C)n1Cc1ccc(F)cc1,1.7%

The closing three records of the section before come first, to join the parts.
mol,Mtb H37Rv
NC(=O)c1ccsc1NC(=O)c1cccc2ccccc12,43.1%
O=C(CCc1ccccc1)Nc1c2c(nn1-c1ccccc1)CS(=O)(=O)C2,-9.3%
CCN(CC)c1nc2c(c(=O)[nH]c(=O)n2C)n1Cc1ccc(F)cc1,1.7%
Cc1ccnc(SCCCn2c(N3CCN(C)CC3)nc3c2c(=O)[nH]c(=O)n3C)n1,-1.8%
CC(C)Oc1ccc(C(=O)Nc2ccc3c(c2)C(=O)NC3=O)cc1,80.7%
O=C1N=c2ccc(Br)cc2=C1c1sc(=S)n(-c2ccc(O)cc2)c1O,1.6%
Cc1nnc(NC(=O)CCCl)s1,79.5%
COc1ccccc1C(=O)Nc1nnc(-c2ccco2)o1,-1.9%
Cc1cccc(C)c1OCCn1c(CO)nc2ccccc21,-9.5%
CCOC(=O)COc1cccc2c(=O)n(CC(=O)Nc3ccccc3OCC)ccc12,-1.4%
Cc1cc(SCC(=O)OCc2ccccc2)nc(=O)[nH]1,-11.0%
CCC(Sc1nncn1C)C(=O)Nc1nnc(-c2cc(OC)ccc2OC)s1 (configuration not stated),5.7%
OC(COc1ccc(-c2nnco2)cc1)Cn1nnc2ccccc21 (configuration not stated),-10.0%
CCCc1cc(=O)[nH]c2nnc(SCC(=O)Nc3cccc([N+](=O)[O-])c3)n12,7.2%
Cc1cc(Nc2ncnc3c2cnn3-c2cccc(Cl)c2)ccc1Br,6.9%
CC(=O)c1ccc(C(=O)Nc2sc3c(c2-c2nc4ccccc4s2)CCN(C(C)=O)C3)cc1,5.1%
COc1ccccc1NS(=O)(=O)c1c[nH]c(=O)[nH]c1=O,-0.3%
COc1ccc(OC)c(N2CC(c3nc4ccccc4n3Cc3ccccc3Cl)CC2=O)c1 (configuration not stated),83.0%
CC1=C(C(=O)Nc2ccc(Br)cc2)C(c2ccc(C(C)C)cc2)NC(=O)N1 (configuration not stated),16.5%
CN(C)S(=O)(=O)c1ccc2c3c(cccc13)C(=O)N2,28.6%
COC(=O)c1ccc(NC(=O)c2c(-c3ccccc3Cl)noc2C)cc1,8.4%
Cc1ccccc1Cn1cc(S(=O)(=O)c2ccc(C(C)C)cc2)c(=O)c2cc(F)ccc21,-3.4%
O=C(Nc1ccc(-n2nncc2C23CC4CC(CC(C4)C2)C3)cc1)c1cc2ccccc2oc1=O,0.7%
O=C(Nc1nc(-c2ccc3c(c2)OCCO3)cs1)c1ccc2ncsc2c1,1.9%
Cc1ccc2cc(CCNC(=O)c3cccc4ccccc34)c(=O)[nH]c2c1C,8.7%
COc1ccc([N+](=O)[O-])cc1NC(=O)c1c[nH]c(=O)n(-c2ccc(OC)c(OC)c2)c1=O,3.1%
Cc1ccc(-c2nnc(NC(=O)CN3C(=O)CCC3=O)o2)c(C)c1,-1.3%
CC(CNc1nc2c(-c3cccc(C(F)(F)F)c3)nnn2c2ccccc12)c1ccccc1 (configuration not stated),6.7%
COc1ccc(N2CC(NC(=O)N3CCN(C(C)=O)CC3)CC2=O)cc1 (configuration not stated),-5.0%
Nc1nc(SCC(=O)Nc2ccccc2F)[nH]c(=O)c1NC(=O)c1ccco1,-18.6%
O=C1N/C(=N/N=C/c2ccccc2O)SC1Cc1ccc(Cl)cc1Cl (configuration not stated),1.32µg/mL*
